# KCNQ2 pot: potentiators of rat KCNQ2 potassium channel; Potassium voltage-gated channel subfamily KQT member 2 (Rattus norvegicus), O88943; CHO-K1 KCNQ2, FluxOR thallium flux fluorescence; hits give high values; B-score at 10 µM; 310,000 tested, 0.54% active;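 active = fluorescence ratio B-score at least 3 SD of library B-scores, with initial fluorescence B-score within 3 SD, cut at about 5.3 in these data; same plate scores as AID 2156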;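 note: B-score of peak minus minimum over baseline fluorescence ratio after K+ and Tl+ stimulus; positive B-score means potentiation of KCNQ2 with more thallium influx and brighter signal; only the inactives scoring about 0 or higher are listed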
# Target sequence (O88943 whole entry, looked up): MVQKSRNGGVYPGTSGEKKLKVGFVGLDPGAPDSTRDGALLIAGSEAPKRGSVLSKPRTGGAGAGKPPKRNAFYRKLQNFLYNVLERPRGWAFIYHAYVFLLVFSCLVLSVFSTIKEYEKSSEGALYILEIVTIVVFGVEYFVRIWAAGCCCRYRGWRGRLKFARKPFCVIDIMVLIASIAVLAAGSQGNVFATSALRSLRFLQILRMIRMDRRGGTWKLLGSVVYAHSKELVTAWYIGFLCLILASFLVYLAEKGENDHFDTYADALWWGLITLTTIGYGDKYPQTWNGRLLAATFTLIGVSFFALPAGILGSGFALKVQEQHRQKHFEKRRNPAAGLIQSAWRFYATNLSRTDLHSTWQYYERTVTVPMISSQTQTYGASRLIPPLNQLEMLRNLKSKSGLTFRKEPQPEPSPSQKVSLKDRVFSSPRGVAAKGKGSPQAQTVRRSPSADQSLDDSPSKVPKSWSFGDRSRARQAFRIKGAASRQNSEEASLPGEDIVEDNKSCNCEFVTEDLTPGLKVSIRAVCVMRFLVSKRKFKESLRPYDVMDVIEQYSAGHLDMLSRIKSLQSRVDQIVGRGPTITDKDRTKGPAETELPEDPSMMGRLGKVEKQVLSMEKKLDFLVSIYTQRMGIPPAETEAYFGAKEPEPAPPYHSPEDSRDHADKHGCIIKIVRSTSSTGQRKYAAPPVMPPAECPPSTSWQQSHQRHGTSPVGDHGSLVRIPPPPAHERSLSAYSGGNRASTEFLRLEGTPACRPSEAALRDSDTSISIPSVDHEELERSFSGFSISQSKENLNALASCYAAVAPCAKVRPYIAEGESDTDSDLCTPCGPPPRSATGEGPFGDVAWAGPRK
# KCNQ2 pot baseline: further read-out of KCNQ2 pot, marked with its call; B-score; compound at 10 µM; measured here: initial fluorescence intensity artifact check;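 brightness before thallium and not channel activity; 0 = typical well and far values either way flag optical interference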
# Numbers without * were called inactive.
SMILES	KCNQ2 pot	KCNQ2 pot baseline
C[n+]1ccccc1C1CCCC/C1=N\NC(N)=S (stereo not given)	1.2	-1.8
CC(=O)Nc1cccc(NC(=O)c2ccc(Br)cc2)c1	0.19	2.9
Oc1c(N=NC(=S)Nc2ccccc2F)c2ccccc2n1Cc1ccc(Cl)cc1	1.1	0.17
CS(=O)(=O)N(Cc1ccccc1)c1ccc(C(=O)Nc2cccnc2)cc1	0.03	0.04
CCOc1ccc(CCNC(=O)c2nnn(CC(=O)Nc3ccc(C)cc3)c2N)cc1OCC	1.1	-0.71
Cc1ccc(N2C(=O)N3[C@H](c4ccc(F)cc4)[C@@H]4C(=O)N(C5CCCCC5)C(=O)[C@@H]4[C@]3(C)C2=O)cc1	1.1	-0.41
Cn1c(=O)[nH]c(=O)c2c1nc(CN1CCN(Cc3ccccc3)CC1)n2CC(N)=O	0.01	1.9
O=C(NCCNc1ccc([N+](=O)[O-])cc1C(F)(F)F)c1ccccc1	0.59	-3.3
Cc1nn(C)cc1[C@@H]1C[C@H]2CN(Cc3cccc(Cl)c3)C(=O)[C@]23CCCN13	0.08	-0.16
O=C(COc1ccc2c(-c3ccccc3)cc(=O)oc2c1)NCC(O)c1ccccc1 (stereo not given)	1.2	-0.59
CC1=C(C(=O)OCc2ccccc2)C(c2ccc3c(c2)OCO3)NC(=O)N1CCCC(=O)O (stereo not given)	1.1	-0.88
CCc1ccc(N(CC)c2ncnc3nc[nH]c23)cc1	1.5	2.2
CN1/C(=C\C(=O)c2cccc(S(=O)(=O)N3CCCCC3)c2)C(C)(C)c2ccccc21	0.2	-2.1
COc1cccc(/C=N/Nc2c(Cl)cncc2Cl)c1O	0.03	0.61
Cc1ccc(NC(=O)CCc2nc3ccccc3c(=O)[nH]2)cc1S(=O)(=O)N1CCOCC1	2.1	-1.7
Fc1cccc(NC(=S)NCC(c2cccnc2)N2CCOCC2)c1 (stereo not given)	0.1	-1.2
C(=N/N1CCN(c2ccccc2)CC1)/c1cccs1	0.01	-1.2
CC(=O)C(C(C)=O)C(c1ccccc1)c1nc2ccccc2[nH]c1=O (stereo not given)	0.62	0.01
Cc1cccc(-n2c3nc(=O)[nH]c(=O)c-3cc3c(C)nn(-c4ccccc4)c32)c1C	0.24	0.56
c1ccc(Nc2nc(-c3ccncc3)cs2)cc1	0.05	0.76
O=[N+]([O-])c1cc(/C=N/Nc2nc(N3CCOCC3)nc(N3CCOCC3)n2)ccc1Cl	2.2	0.13
Cc1ccc(-n2c(N)cc(=O)nc2SCC(=O)NC2CCCCC2)cc1C	0.33	-0.59
CC(=O)N1CCC2(CC1)NC(=O)N(c1ccccc1)N2	0.42	-0.26
CCOc1cc(C(=O)CCC(=O)OCC(=O)NC(=O)NCC(C)C)ccc1O	0.98	-0.61
CN(CCOc1ccccc1)CCOc1ccccc1	0.59	0.25
S=c1nc[nH]c2c1sc1nc(N3CCOCC3)c3c(c12)CCCC3	12*	0.61*
S=C(NCc1ccccc1)Nc1cccc2cnccc12	1.3	-0.46
CC(=O)c1c(C)[nH]c(=S)c(C#N)c1-c1ccc(F)cc1	1.5	-2.8
O=C(NNC1=Nc2cccc3cccc1c23)c1ccccc1Br	0.09	-0.47
CCOc1ccc(C(=O)NCC(c2cccs2)N(C)C)cc1 (stereo not given)	2	-2.2
COc1cccc(C(=O)Nc2nnc(C3CCCO3)s2)c1 (stereo not given)	0.75	-0.75
O=C(Nc1ccnn1C1CCN(Cc2ccc(CO)o2)CC1)c1ccccc1	0.46	1.6
C/C(=N\NC(=O)c1ccco1)c1ccc(C(=O)O)s1	0.52	0.52
Cc1noc(NS(=O)(=O)c2ccc(NC(=O)c3cnc4n(c3=O)CCS4)cc2)c1C	0.76	-0.92
CC(=O)Nc1ccc(NC(=O)C(Cc2ccccc2)NC(=O)C2CCCCC2)cc1 (stereo not given)	0.58	-1.6
Cc1ccccc1-c1nn(-c2ccc(F)cc2F)cc1CNCCCO	0.79	1.1
CCc1ccc(C(=O)COC(=O)c2cncc(Br)c2)cc1	1.5	0.11
COc1ccc(CCN2C(=NC(=O)C(C)C)SC3CS(=O)(=O)CC32)cc1OC (stereo not given)	1.3	-1
Cc1ccc(S(=O)(=O)NCCC(=O)Nc2nnc(C)s2)cc1	0.17	-0.01
N#Cc1ccc(C(=O)OCC(=O)Nc2ccc(S(N)(=O)=O)cc2)cc1	0.16	1.1
Cc1ccc(S(=O)(=O)Nc2ccc(-c3csc(-c4ccccc4)n3)cc2)cc1	0.5	0.69
CCOC(=O)CN(Cc1sccc1C)C(=O)Nc1ccc(OCC)cc1	0.82	0.53
O=C(NCCC1=CCCCC1)c1cnsn1	0.13	0.17
CCCCn1c(N)c(N(CCOC)C(=O)c2ccc(-c3ccc(C(C)=O)cc3)o2)c(=O)[nH]c1=O	0.1	-1.5
O=C(Nc1ccc(-c2nc3ccccc3[nH]2)cc1)C1CCCO1 (stereo not given)	0.36	0.54
O=C(O)c1ccccc1C(=O)NNc1ccc(F)cc1F	1.9	-2.8
O=C1SCCC1NC(=O)C(c1ccccc1)c1ccccc1 (stereo not given)	0.21	-0.74
N=C(N)SCCc1cccc(CCSC(=N)N)c1	1.6	-0.54
NCCCCCc1nnc(SCC(N)=O)o1	1.6	0.07
COc1cc(/C=N/n2cnnc2)ccc1Oc1nc(Cl)ncc1F	0.09	1.3
CCCn1c(/N=C/c2ccccc2O)nc2ccccc21	1.9	-0.44
Cc1ccc(NC(=O)CCCCCN2C(=O)c3ccccc3C2=O)nc1	0.95	-0.31
CC1CCN(c2c(NCc3ccc(C(=O)N4CCN(C5CCCCC5)CC4)cc3)c(=O)c2=O)CC1	0.41	0.46
Cc1cc(C)nc(NC(=S)Nc2ccc(F)cc2F)c1	0.13	1.1
CC1(C)CC(=O)C/C(=N\NC(=O)C2CC23CCC3)C1 (stereo not given)	0.43	0.6
O=C(c1ccco1)N1CCN(C(=O)c2ccc(Cn3cc(Br)cn3)o2)CC1	0.04	0.04
O=C(Nc1cccc(S(=O)(=O)N2CCCC2)c1)c1cccnc1	1.4	1.6
Cc1ccc2c(CN3CCC(C(N)=O)CC3)cc(=O)oc2c1C	0.39	1.6
CCc1cccc(CC)c1NC(=O)C1CN(S(=O)(=O)c2ccccc2)CCN1S(=O)(=O)c1ccccc1 (stereo not given)	0.01	0.14
CCOC(=O)c1c(C)nn(Cc2cccc(Cl)c2)c1N	0.31	1.1

# Full records, looked up by structure.
# COc1cc(/C=N/n2cnnc2)ccc1Oc1nc(Cl)ncc1F is listed as KCNQ2 pot: 0.09; KCNQ2 pot baseline: 1.3
# O=C(O)c1ccccc1C(=O)NNc1ccc(F)cc1F is listed as KCNQ2 pot: 1.9; KCNQ2 pot baseline: -2.8

# Later entries:
SMILES	KCNQ2 pot	KCNQ2 pot baseline
O=C(Cn1c(=O)oc2cc(S(=O)(=O)N3CCCCC3)ccc21)N1CCc2ccccc2C1	0.68	-2.1
COc1ccc(NC(=O)CC2C(=O)NCCN2C(=O)c2ccc(N(C)C)cc2)cc1 (stereo not given)	0.42	0.16
Cc1cccc(-c2noc(CCC(=O)NC3CCCC3)n2)c1	0.41	1.9
COc1ccccc1C/C(N)=N/OC(=O)c1ccc(C)c([N+](=O)[O-])c1	0.93	-0.35
CC(C)NC(=O)c1onc(CSc2ccccn2)c1C(=O)NC(C)C	0.48	0.36
Cc1c(-c2ccccc2)nc(N)c(C#N)c1-c1cccnc1	1.5	-1.7
Cc1ccc(-c2nsc3c(N4CCC(C(N)=O)CC4)ncnc23)cc1	1.8	0.16
Cc1cccc(OCCNC(=O)c2cncc(Br)c2)c1	0.17	0.42
Cc1nn(Cc2ccc(Cl)cc2)c(C)c1N	0.11	0.88
Cc1ccc(C(=O)NCc2ccccn2)cc1S(=O)(=O)N1CCCCC1	0.73	2.1
COc1ccc(NC(=O)CN(Cc2ccccc2)S(C)(=O)=O)c(OC)c1	0.9	-1.7
CCOc1cc(C(=S)N2CCC(O)CC2)ccc1OS(=O)(=O)c1ccc(Br)cc1	1.8	0.01
CCC(=O)N1CCc2cc(S(=O)(=O)NCCC(=O)N3CCN(c4cccc(C)c4)C(C)C3)ccc21 (stereo not given)	2.3	0.82
CCCOC(=O)c1ccc(NC(=O)c2cnccn2)cc1	0.12	-0.27
O=C(NCc1ccc(Cl)cc1)c1cc(=O)[nH]c2ccc(S(=O)(=O)N3CCOCC3)cc12	1.1	0.56

# 4 consecutive compounds out of the list so far:
SMILES	KCNQ2 pot	KCNQ2 pot baseline
CCOc1cc(C(=S)N2CCC(O)CC2)ccc1OS(=O)(=O)c1ccc(Br)cc1	1.8	0.01
CCC(=O)N1CCc2cc(S(=O)(=O)NCCC(=O)N3CCN(c4cccc(C)c4)C(C)C3)ccc21 (stereo not given)	2.3	0.82
CCCOC(=O)c1ccc(NC(=O)c2cnccn2)cc1	0.12	-0.27
O=C(NCc1ccc(Cl)cc1)c1cc(=O)[nH]c2ccc(S(=O)(=O)N3CCOCC3)cc12	1.1	0.56

# Next entries follow:
SMILES	KCNQ2 pot	KCNQ2 pot baseline
CCN1CCN(c2nc3ccccc3nc2C(C#N)S(=O)(=O)c2ccc(C)c(C)c2)CC1 (stereo not given)	0.83	0.19
NC(=O)c1nn(-c2ccccc2)nc1NC(=O)CN1CCOCC1	1.8	0.49
O=C(O)c1ccc(CSc2nc(-c3ccc(Cl)cc3)cc(C(F)(F)F)n2)cc1	4.1	-1.6
CC12CC3CC(C)(C1)CC(C(=O)NC(=S)N1CCCCC1)(C3)C2	0.79	1.4
O=C(O)C1CC=CCC1C(=O)Nc1cccc(F)c1 (stereo not given)	0.04	0.62
O=C(Cn1nc2ccccc2n1)N/N=C/c1ccc(F)cc1	0.27	0.9
Cc1ccc(S(=O)(=O)N(C)c2ccc(OCC(=O)NC3=NCCS3)cc2)cc1	0.62	-3.2
COc1ccc(C(=O)C(=O)c2ccc(OCCO)cc2)cc1	0.24	1
COc1ccc(OC)c(CN2CCC(CNC(=O)Nc3cccc(Cl)c3)CC2)c1	0.95	-0.53
Cc1nc2c(c(=O)c3ccccc3n2C)c(=O)n1-c1ccccc1	0.42	-0.62
Cc1cccc(NC(=O)CSc2nnc(-c3ccccc3Br)o2)c1C	1.1	-0.16
CC1(C)CC(=O)C(C(=O)C2CCN(S(=O)(=O)c3ccccc3)CC2)C(=O)C1	2	1.9
COc1ccc(NC(=O)COc2ccc(Br)cc2)c(OC)c1	0.45	-0.19
O=C(Cn1cccc1C(=O)c1ccccc1)NCCCc1ccccc1	0.8	0.54
Cc1ccc(NC(=O)c2cc(NC(=O)c3ccco3)ccc2N2CCCCC2)cc1	0.55	-0.33

# The final 3 entries of the section above come first, to join the parts.
SMILES	KCNQ2 pot	KCNQ2 pot baseline
COc1ccc(NC(=O)COc2ccc(Br)cc2)c(OC)c1	0.45	-0.19
O=C(Cn1cccc1C(=O)c1ccccc1)NCCCc1ccccc1	0.8	0.54
Cc1ccc(NC(=O)c2cc(NC(=O)c3ccco3)ccc2N2CCCCC2)cc1	0.55	-0.33
CCOC(=O)c1c(C)oc2ccc(OCC(=O)N(CC)CC)cc12	0.21	0.33
CN(Cc1c(C(=O)N/N=C/c2cccc(O)c2)nnn1-c1nonc1N)C1CCCCC1	0.11	-0.16
Brc1ccc(OCCCCN2CCCCC2)cc1	1.1	0.71
N#Cc1ccccc1COC(=O)c1ccc(Br)o1	0.2	0.63
CC(C)CN(C(=O)C1CSC2(C)CCC(=O)N12)c1c(N)n(Cc2ccccc2)c(=O)[nH]c1=O (stereo not given)	1.3	-0.7
CC(NC(=O)/C(C#N)=C/c1cccs1)c1ccccc1 (stereo not given)	0.61	-0.1
C/C(=N\NC(=O)c1nnn(-c2nonc2N)c1-c1cccs1)c1cccc(O)c1	1.6	0.08
O=C(Nc1ccc(N2CCOCC2)cc1)c1cc2c(s1)CCCCC2	0.09	0.3
O=C(N/N=C/C(Cl)=C/c1ccc([N+](=O)[O-])cc1)C(=O)Nc1ccc(C(=O)O)cc1	0.65	-1

# Not all compounds are listed, so the mix of outcomes need not match the whole.
